Bioassay records (PubChem)
VDR inh: vitamin D3 receptor (human) inhibition. Potency, µM, for the others: max response, negative = inhibition, hits mostly inhibitors. 400,000 tested, 0.93% active. AID 504847. P11473. VDR-SRC2-3 peptide fluorescence polarization, 2 h; active = well fitted inhibition curve with a large enough effect; inconclusive = small, poorly fitted or top-dose-only effect, or another doubt; inactive = no such curve, though single readings can be large or run the other way; note: series mostly up to about 120 µM
Target sequence (P11473 whole entry, looked up): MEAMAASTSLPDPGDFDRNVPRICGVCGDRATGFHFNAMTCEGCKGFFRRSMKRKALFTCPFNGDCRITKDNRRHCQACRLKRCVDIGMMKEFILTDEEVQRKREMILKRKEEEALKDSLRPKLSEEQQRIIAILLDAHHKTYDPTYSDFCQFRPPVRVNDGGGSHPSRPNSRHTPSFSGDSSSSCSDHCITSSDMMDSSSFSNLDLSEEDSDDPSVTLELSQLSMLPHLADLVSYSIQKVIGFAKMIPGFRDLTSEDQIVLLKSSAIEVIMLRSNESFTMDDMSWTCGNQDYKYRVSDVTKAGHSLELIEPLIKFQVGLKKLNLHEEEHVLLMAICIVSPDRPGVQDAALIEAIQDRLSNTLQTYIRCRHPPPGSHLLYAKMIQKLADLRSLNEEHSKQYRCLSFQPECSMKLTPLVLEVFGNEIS
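Measured by FP: displacement of SRC2-3 coactivator peptide from VDR by library compounds, following a two-hour ambient incubation.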
* hit, by the source's call; ? = inconclusive. % is set by controls: 0 for no effect and ±100 for the full control effect; potency is the fitted concentration of half-maximal effect. Some of the compounds tested; rates above refer to the full screens.

> CCn1c(SCC(=O)NCc2cccs2)nnc1-c1ccncc1
  VDR inh = 0.5%

> CC(C)Cn1c(-c2ccccc2)nc2ccccc2c1=O
  VDR inh = 9.3%

> COC(=O)[C@H](CCSC)NC(=O)c1ccc(NC[C@@H](N)CS)cc1-c1ccccc1
  VDR inh = 10µM*

> COc1ccc(NC(=S)Nc2cccc(C)n2)cc1
  VDR inh = -9.8%

> COc1ccc(CNC(=O)[C@]2(C)CCC[C@@]3(C)C4CC[C@@]5(C)C[C@]4(CCC32)CC5=O)cc1 (some centres undefined)
  VDR inh = -14.0%

> Cc1ccc(NC(=O)Cn2cnc(C(=O)Nc3ccc(C)c(C)c3)n2)cc1C
  VDR inh = -3.8%

> O=C(COC(=O)c1ccc(Br)c(S(=O)(=O)N2CCOCC2)c1)NC1CC1
  VDR inh = 12.8%

> Cc1ccc(NC(=O)CSc2nnc(Cn3cnc4ccccc43)o2)cc1
  VDR inh = 12.0%

> CN(C)CCNC(=O)C(=O)Nc1cc2c3c(c1)CCN3C(=O)CC2
  VDR inh = ?

> O=C(NCc1ccccc1F)C1CCCN1S(=O)(=O)c1ccc(Cl)cc1 (centres undefined)
  VDR inh = -9.1%

VDR inh: hit marks shown above
> COC(=O)[C@H](CCSC)NC(=O)c1ccc(NC[C@@H](N)CS)cc1-c1ccccc1
  VDR inh = 10µM*

Next section:
> CC(C)(C)NC(=O)C(=O)N/N=C/c1cccs1
  VDR inh = -2.8%

> Cc1ccc(CNC(=O)c2ccc3c(c2)N(Cc2ccccc2F)C(=O)c2ccccc2S3(=O)=O)cc1
  VDR inh = -10.6%

> Cc1ccc(-c2nnc3ccc(SC(C)C(=O)O)nn23)cc1 (centres undefined)
  VDR inh = -14.3%

> C/C(=C\C(=O)c1cccnc1)Nc1ccc(O)cc1
  VDR inh = -3.7%

> O=C(Nc1cc(Cl)cc(Cl)c1)c1cccnc1
  VDR inh = 0.9%

> COc1ccc(Cl)cc1NC(=O)c1cc2nc(-c3ccc(C)cc3)cc(C(F)(F)F)n2n1
  VDR inh = 5.1%

> COc1cccc(NC(=O)NCCc2ccc(Cl)cc2)c1
  VDR inh = 2.7%

> O=C(/C=C/c1c(Cl)cccc1Cl)N1CCOCC1
  VDR inh = -1.9%

> CCN(CC)Cc1ccccn1
  VDR inh = 11.7%

> Cc1c(O)ccc(C(=O)CN2CCN(c3ccccc3F)CC2)c1O
  VDR inh = -8.2%

> Cc1ccc(CC2CC(=O)N(C(Cc3ccccc3)C(=O)O)C2=O)cc1 (centres undefined)
  VDR inh = -5.9%

> COc1ccc(/C=N\NC(=O)c2cc3c(ccc4ccccc43)o2)cc1O
  VDR inh = 17.0%

> CCOC(=O)C1(Nc2nccs2)Sc2ccccc2NC1=O (centres undefined)
  VDR inh = -4.4%

> CCCCNC(=O)C1CCN(Cc2ccccn2)CC1
  VDR inh = -13.2%

> CCN(CC)C(=O)C1CCCN(Cc2nc(-c3cnccn3)no2)C1 (centres undefined)
  VDR inh = -5.7%

> O=C(CCSc1ccc(F)cc1)NNC(=O)c1ccc([N+](=O)[O-])cc1
  VDR inh = 0.7%

> COc1ccccc1NC(=O)C1=C(C)Nc2c(C(=O)Nc3ccc(F)cc3)cnn2C1c1ccc(Cl)cc1 (centres undefined)
  VDR inh = 13.3%

> CCCOc1ccc(C(=O)N2CCN(Cc3ccc4c(c3)OCO4)CC2)cc1
  VDR inh = -19.3%

> O=C(Nc1ccccc1N1CCOCC1)c1cccc(NS(=O)(=O)c2ccc(F)c(F)c2)c1
  VDR inh = 15.7%

> CCc1cc2cccc(C)c2nc1SCC(=O)NNC(=O)c1ccco1
  VDR inh = -1.6%

> CCOC(=O)c1ccc(CS(=O)c2ccc(Cl)cc2)o1 (centres undefined)
  VDR inh = 3.3%

> Cc1noc(C)c1C(=O)Nc1nc2ccccc2s1
  VDR inh = -3.9%

> Cc1ccc(N(C(C)C(=O)Nc2ccc3c(c2)OCO3)S(C)(=O)=O)cc1 (centres undefined)
  VDR inh = ?

> O=C(NC(=S)NCc1nc2ccccc2[nH]1)c1ccccc1F
  VDR inh = -1.8%

> O=C(CCS(=O)(=O)c1ccc(Br)s1)N1CCc2ccccc21
  VDR inh = 0.0%

> CCOc1ccc(NS(=O)(=O)c2ccc(C(=O)N3CCN(C(C)=O)CC3)cc2)cc1
  VDR inh = 7.7%

> Cc1ccc(C(=O)Cc2ccccc2)o1
  VDR inh = -3.5%

> O=C1Nc2cc(Cl)c(Cl)cc2N(O)N1c1ccc(Cl)c(Cl)c1
  VDR inh = -5.8%

> CCOc1cc(NS(=O)(=O)c2ccccc2)c(OCC)cc1NC(=O)c1ccco1
  VDR inh = -11.2%

> COC(=O)C(C)Sc1ncnc2c1c(-c1ccccc1)cn2-c1ccc(OC)cc1 (centres undefined)
  VDR inh = -4.5%

> CCOC(=O)c1cc(NC(=O)c2cccnc2)ccc1N1CCOCC1
  VDR inh = -2.1%

> Fc1ccc(NC(=S)NC2CCN(Cc3ccccc3)CC2)cc1
  VDR inh = 2.5%

> Cc1cc([N+](=O)[O-])ccc1NC(=O)CN1CCN(Cc2ccccc2)CC1
  VDR inh = -22.4%

> N/C(=N\OC(=O)COc1ccc2ccccc2c1)c1ccccn1
  VDR inh = -9.3%

> COc1ccc(S(=O)(=O)NC2CCN(Cc3ccccc3)CC2)cc1NC(C)=O
  VDR inh = -1.5%

> CCn1c(COc2ccc(=O)n(-c3ccccc3)n2)nnc1SCc1cccc(OC)c1
  VDR inh = -18.5%

> O=S(=O)(Nc1ccc(-c2ccc(N3CCOCC3)nn2)cc1)c1ccc(Cl)c(Cl)c1
  VDR inh = -5.6%

> COc1ccccc1N(CC(=O)Nc1cc(S(=O)(=O)N(C)C)ccc1C)S(=O)(=O)c1cccs1
  VDR inh = -17.5%

> COc1ccc(CNC(=O)C(C)n2ccc3cc(S(=O)(=O)N4CCCCCC4)ccc32)cc1 (centres undefined)
  VDR inh = -9.3%

> CCn1c(SCC(=O)N/N=C/c2ccccc2OCC(=O)O)nnc1-c1ccc(OC)cc1
  VDR inh = 5.6%

(continued)
SMILES	VDR inh
COCCn1c(SCC(=O)N2CC(=O)Nc3ccccc32)nnc1-c1ccoc1C	0.5%
CCOc1ccccc1CN1CCC(Oc2ccc(C(=O)NCc3ccccn3)cc2)CC1	-5.8%
CC(C)Cc1nnc(NC(=O)CSc2ncn[nH]2)s1	1.3%
O=C1/C(=C/c2ccccc2Cl)SC(=S)N1CCC(=O)N1CCCCC1CCO (centres undefined)	-9.7%
O=C(c1cccc(N2CCNC2=O)c1)N1CCCC(Nc2cccc(F)c2)C1 (centres undefined)	-2.4%
COc1ccc2[nH]c3c(c2c1)CCN1C(=O)C(CC(=O)NCCC2=CCCCC2)C[C@H](C(=O)N(C(C)C)C(C)C)[C@@]31C (some centres undefined)	-5.6%
CNC(=O)c1cc(S(=O)(=O)Nc2ccc(C)cc2C)ccc1C	-14.0%
CCOc1ccc(NC(=O)NN2C(C)CCCC2C)cc1 (centres undefined)	-28.1%
CC(=O)N1CCc2cc(S(=O)(=O)NC(CC(C)C)C(=O)Nc3cc(C)ccn3)ccc21 (centres undefined)	1.7%
CC(=O)Nc1ccc(N(C)S(C)(=O)=O)cc1	-14.3%
Cc1cc(C)n(-c2nc(NCCO)c3c4c(sc3n2)CCCC4)n1	-10.2%
COc1cc(/C=N/n2nnnc2N)ccc1O	6.1%
CC(=O)N[C@H]1[C@H](OCc2ccccc2F)O[C@H](COC(C)=O)[C@@H](OC(C)=O)[C@@H]1OC(C)=O	0.5%
NC(=O)c1ccc(NC(=O)C2CCCC2)cc1	-4.1%
CC(=O)N1CCN(CC(=O)c2ccc(Br)cc2)CC1	?
COc1ccc(C)cc1NC(=O)N1CCN(c2nnc(C)c3c(C)n(-c4ccccc4)nc23)CC1	6.6%
CCCC(=O)C1=C(N(C)c2ccccc2)CC(C)(C)C(C(=O)OC)C1=O (centres undefined)	6.3%
CC[C@H]1NC(=O)c2cc(S(N)(=O)=O)c(Cl)cc2N1	-1.3%
COc1ccc(NC(=O)Nc2c[nH]c(=O)[nH]c2=O)cc1	3.5%
CCc1ccc(CNC(=O)Cc2c(C(=O)O)c(C)cn2C)cc1	-5.8%
COc1cc(C(=O)N2CC(=O)Nc3ccc(C)cc3C2c2ccc(F)cc2)cc(OC)c1OC (centres undefined)	5.9%
CC(C)c1ccc(OCC(=O)NNC(=S)NC(=O)c2ccco2)c(Br)c1	-15.3%
Cc1cc(C(=O)NN=Cc2c(C)[nH]c3ccccc23)c(C)o1	-11.1%
Cc1cccc(CSC2=NCCN2C(=O)c2ccc(S(=O)(=O)N(C)C)cc2)c1	-7.5%
Cc1cc(C)c2c(n1)SCCN2C(=O)Nc1ccc(C(=O)Nc2ccc(C(C)C)cc2)cc1	6.3%
COCCCC1CCN(Cc2nc(-c3ccccc3)no2)CC1	-10.0%
CN1C(CC(=O)Nc2ccc(Br)cc2)c2ccccc2CC1(C)C (centres undefined)	-3.1%
COc1ccccc1CNS(=O)(=O)c1cc(Br)cc2c1N(C(C)=O)C(C)C2 (centres undefined)	-8.9%
O=C(COc1ccc2c(-c3ccccc3)cc(=O)oc2c1)NCc1ccccn1	4.2%
CC(C)CN(C(=O)COC(=O)c1ccc(C#N)cc1)C1CCS(=O)(=O)C1 (centres undefined)	2.0%
Nc1nccc(SCc2ccc(Cl)cc2Cl)n1	-5.3%
Cc1ccc(-c2nnn(CC(=O)N(CC3CCCO3)C(C(=O)NC3CCCCC3)c3ccc(F)cc3)n2)o1 (centres undefined)	7.9%
Cc1cccc(NC(=O)c2ccc([N+](=O)[O-])s2)n1	10.0%
COc1ccccc1C1=NOC(Cn2c(NCCCO)nc3c2c(=O)n(C)c(=O)n3C)C1 (centres undefined)	6.7%
CC(C)(C)n1nnnc1C(c1cccc(C#N)c1)N1CCCc2ccccc21 (centres undefined)	1.6%
O=C(CCN1C(=O)/C(=C/c2ccccc2F)SC1=S)NCCCN1CCOCC1	-14.6%
CN1CCN(Cc2cc(COCc3ccccc3)c3cccnc3c2O)CC1	?
Cc1ccc(C(=O)COc2ccccc2-c2ccccc2)cc1	-2.6%
CN(C)/C=N/c1nc(-c2ccc3ccccc3c2)cs1	10.9%
Cc1ccccc1-c1ccnc2c(-c3ccc(F)cc3)c(C)nn12	3.1%

Three entries from above, reformatted.
| VDR inh | SMILES |
| --- | --- |
| -14.6% | O=C(CCN1C(=O)/C(=C/c2ccccc2F)SC1=S)NCCCN1CCOCC1 |
| ? | CN1CCN(Cc2cc(COCc3ccccc3)c3cccnc3c2O)CC1 |
| -2.6% | Cc1ccc(C(=O)COc2ccccc2-c2ccccc2)cc1 |

Arranged by count of non-hydrogen atoms (low to high): part of the list above.
SMILES	VDR inh
Cc1cc(C(=O)NN=Cc2c(C)[nH]c3ccccc23)c(C)o1	-11.1%
Cc1ccccc1-c1ccnc2c(-c3ccc(F)cc3)c(C)nn12	3.1%
CN1CCN(Cc2cc(COCc3ccccc3)c3cccnc3c2O)CC1	?
O=C(COc1ccc2c(-c3ccccc3)cc(=O)oc2c1)NCc1ccccn1	4.2%
Cc1ccc(-c2nnn(CC(=O)N(CC3CCCO3)C(C(=O)NC3CCCCC3)c3ccc(F)cc3)n2)o1 (centres undefined)	7.9%

(more compounds)
SMILES	VDR inh
CC(=O)Nc1ccc(SCC(=O)Nc2ccccc2Oc2ccccc2)cc1	-2.0%
O=C(C1CCN(S(=O)(=O)N2CCC3(CC2)OCCO3)CC1)N1CCOCC1	-3.5%
CSCc1ccc(C(=O)NCc2ccccc2)cc1	-26.1%
Cc1ccc(C)c(NC(=O)C2CC(O)CN2C(=O)OC(C)(C)C)c1 (centres undefined)	6.0%
O=[N+]([O-])c1cccc(NC(=S)N2CCCC2)c1	-5.1%
COc1ccc(/C=C(\NC(=O)c2ccccc2)C(=O)N2CCC(C)CC2)cc1	15.3%
Cc1cccc(CNC(=O)c2ccc(NC(=O)N3CC(C)Sc4ccccc43)cc2)c1 (centres undefined)	16.8%
Cc1ccc(NC(=O)CSc2nnc(Cn3c(=O)sc4ccccc43)n2C)cc1	-16.1%
COc1ccc(CNC(=O)C2CCN(c3nnc(C)c4c(C)n(-c5ccc(C)cc5)nc34)CC2)cc1	14.1%
Cc1cccn2c(=O)c3cc(S(=O)(=O)c4ccc(F)cc4)c(=N)n(Cc4ccco4)c3nc12	-15.8%
COc1ccc(-n2nnc3c(=O)n(CC(=O)Nc4cc(C)on4)cnc32)cc1	-3.6%
C=CCN(c1ccccc1)S(=O)(=O)c1cc2c(cc1C)N(C)CCO2	-7.6%
OC1CCCN(c2c3c(nc4cc(-c5cccc(Cl)c5)nn24)CCC3)C1 (centres undefined)	-24.1%
COc1ccc(CCN2CC(C(=O)Nc3nnc(Cc4ccccc4)s3)CC2=O)cc1OC (centres undefined)	-5.9%
O=[N+]([O-])c1ccc(Cl)cc1N1CCOCC1	-6.0%
Cc1c(-c2ccccc2)sc2nc[nH]c(=S)c12	-17.2%
O=C(N/N=C\c1ccc(CNS(=O)(=O)c2ccccc2)o1)C(=O)Nc1ccc(F)cc1	-16.2%
COc1ccc(N2CCN(c3cc(C)c4cccc(C)c4n3)CC2)cc1	-3.9%
CCCCC(=O)NNC(=S)NC(=O)C(c1ccccc1)c1ccccc1	-14.5%
CC1(C)CC(=O)c2sc(NS(=O)(=O)c3ccc(F)cc3)nc2C1	-3.0%
O=C(Cn1nnc(-c2ccc(F)cc2)n1)Nc1cccc(S(=O)(=O)N2CCCC2)c1	-3.4%
CN(C)c1ccc(/C=N/N=C/c2ccccc2O)cc1	-9.3%
Cc1ccc(N2C(=O)c3ccccc3C2Nc2cccnc2)nc1 (centres undefined)	-23.4%
Cc1ccc(S(=O)(=O)NCCNc2ccc(Br)c(C)c2)cc1	-7.7%
CC1CCN(S(=O)(=O)c2ccc(NC(=O)CN3CCCC(C)C3)cc2)CC1 (centres undefined)	8.8%
Cc1ccc(CNC(=O)Nc2ccc(Cl)cc2)cc1	-16.2%
COc1ccc(C(C(=O)NC(C)(C)C)N(Cc2ccc(F)cc2)C(=O)CCC(=O)Nc2cc(C)on2)cc1 (centres undefined)	14.6%
CCCNC(=S)N1CCN(CC)CC1	-17.8%
